SARS PLP yeast: qHTS of Yeast-based Assay for SARS-CoV PLP; S. cerevisiae expressing SARS-CoV PLpro, growth rescue; control for the full effect not named in the record; Potency, µM (highest dose often 32.9 µM), for inactives: at the top dose activity, positive = growth rescue; 330,000 compounds, 0.19% hits; AID 485353, 2010; active means well fitted rising curve with a large enough effect; inconclusive means small, poorly fitted or top-dose-only effect; inactive means no such curve, though single readings can be large or run the other way; note: 0% is about no effect; nearly all actives have a fitted effect of over 55% in size; growth read by luminescence after 48 h
RE007 growth inh: qHTS Assay for Inhibitors of the HIV-1 protein Vpr. S. pombe RE007 Vpr strain, BacTiter-Glo ATP luminescence, 24 h; control for the full effect not named in the record. AID 651644, 2012. 360,000 compounds, 0.21% hits. Potency, µM (series often up to 92.2 µM), without a hit: at the highest dose activity change, negative = less growth; active = well fitted falling curve with a large enough effect; inconclusive = small, poorly fitted or top-dose-only effect; inactive = no such curve, though single readings can be large or run the other way;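 note: % is set by controls: 0 for no effect and ±100 for the full control effect; nearly all actives have a fitted effect of over 50% in size; the assay follows cell death caused by Vpr and the record does not say whether a fall means rescue or toxicity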
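Fission yeast strain RE007, carrying one chromosomally integrated HIV-1 vpr copy, was seeded at OD 0.01 in PMG+AL medium with 23 nL pinned compound. After 24 h at 30 °C and 99% humidity, viability was read by BacTiter-Glo luminescence.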
StopGo reporter: High Throughput Screening for Foot and Mouth Disease Virus Antivirals; human cells with a luciferase reporter of 2A StopGo recoding; control for the full effect not named in the record; Potency, µM (highest dose often 57.9 µM), for the others: top-dose signal change, negative = less light; 410,000 compounds, 1.2% hits; AID 1159524, 2015; active = well fitted falling curve with a large enough effect; inconclusive = small, poorly fitted or top-dose-only effect; inactive = no such curve, though single readings can be large or run the other way; tested in HEK293T cells; note: % is set by controls: 0 for no effect and ±100 for the full control effect; nearly all actives have a fitted effect of over 45% in size; luciferase light after 4 h
The depositor's hits bear a star; u = inconclusive; [ ] = dose if it differs, or a comment. Potency is the fitted concentration of half-maximal effect. A portion of the library. The share of hits here may be higher or lower than overall.

Each structure is followed by: RE007 growth inh	StopGo reporter	SARS PLP yeast
O=C(COc1ccc2c(-c3ccccc3)cc(=O)oc2c1)NC1CCS(=O)(=O)C1 (stereo not given)
→ -6%	u	6%
COc1cc(C#N)ccc1OCC(=O)Nc1ccc(C)c(S(=O)(=O)N2CCOCC2)c1
→ 14%	u	4%
NC(=O)c1ccsc1NC(=O)COC(=O)c1ccc([N+](=O)[O-])o1
→ 12%	-18%	-14%
Cc1ccc(NC(=O)COC(=O)c2cc(=O)c3ccccc3o2)cc1F
→ 6%	-10%	-18%
CC(Sc1nnc(C2CC2)n1C1CC1)C(=O)Nc1cccc(S(=O)(=O)N2CCOCC2)c1 (stereo not given)
→ 3%	18%	1%
CCN(C[C@H]1N[C@@](Cc2ccccc2)(C(=O)OC)[C@H]2C(=O)N(Cc3ccccc3)C(=O)[C@@H]12)C(=O)C1CCCCC1
→ 39%	0%	-3%
CCC1CCCCN1C(=O)c1sc2nc(C)nc(N(CC)CC)c2c1C (stereo not given)
→ -15%	-10%	2%
CCN1C/C(=C/c2ccc(OC)c(O)c2)C(=O)/C(=C/c2ccc(OC)c(O)c2)C1
→ 12%	-21%	-3%
CN(CC(=O)Nc1ccc(Cl)c(C(F)(F)F)c1)C(=O)c1cc(=O)c2ccccc2o1
→ -15%	-6%	1%
NC(=O)C1Cc2ccccc2CN1C(=O)c1cc(C2CC2)nn1-c1ccccc1 (stereo not given)
→ 10%	-22%	0%
Cc1cc(C)c(C(=O)COC(=O)C2CCN(c3ccc(C(F)(F)F)cn3)CC2)c(C)c1
→ -14%	-22%	-2%
C#CCOCCOCCOCCNc1nc(N2CCN(C(=O)[C@H](CC(N)=O)n3cc(C(N)[C@H](C)CC)nn3)CC2)nc(N2CCN(C(=O)[C@H](CC(N)=O)n3cc(C(N)[C@@H](C)CC)nn3)CC2)n1 (stereo not given in full)
→ -13%	-11%	-1%
Cc1ccc(NC(=O)COC(=O)c2cccc(OC(F)F)c2)cc1S(=O)(=O)N1CCCCC1
→ -20%	-21%	1%
Cc1ccc(C2(c3ccccc3)NC(=O)N(CC(=O)NCc3ccco3)C2=O)cc1C (stereo not given)
→ 0%	-21%	4%
O=C(CSc1nnc(CNC(=O)c2ccccc2F)o1)NCc1ccccc1
→ -11%	-15%	-1%
COC(=O)C/C=C/N(Cc1ccccc1OC)S(=O)(=O)CCl
→ 2%	-28%	-1%
Cc1ccc(C)c(-n2nnnc2SCC(=O)NCC2CCCO2)c1 (stereo not given)
→ -1%	-9%	-3%
COc1ccc(NC(=O)C2CC(=O)N(Cc3ccco3)C2)cc1Cl (stereo not given)
→ -3%	12%	-3%
N#CCCN(C(=O)COC(=O)c1ccc2c(c1)OCO2)c1ccccc1
→ -18%	-3%	-3%
Cc1cccc(C)c1NC(=O)COC(=O)c1ccc2c(c1)OCO2
→ 4%	-6%	0%

Taken from above.
O=C(COc1ccc2c(-c3ccccc3)cc(=O)oc2c1)NC1CCS(=O)(=O)C1 (stereo not given) | RE007 growth inh = -6%
NC(=O)C1Cc2ccccc2CN1C(=O)c1cc(C2CC2)nn1-c1ccccc1 (stereo not given) | StopGo reporter = -22%
Cc1cccc(C)c1NC(=O)COC(=O)c1ccc2c(c1)OCO2 | SARS PLP yeast = 0%
CCN(C[C@H]1N[C@@](Cc2ccccc2)(C(=O)OC)[C@H]2C(=O)N(Cc3ccccc3)C(=O)[C@@H]12)C(=O)C1CCCCC1 | StopGo reporter = 0%

Next part.
Each structure is followed by: RE007 growth inh	StopGo reporter	SARS PLP yeast
O=C(CCNC(=O)c1ccc([N+](=O)[O-])cc1)Oc1ccc(F)c(F)c1
→ -10%	-5%	0%
N#CCCN(C(=O)CSc1ncccn1)c1ccc2c(c1)OCCO2
→ 8%	-7%	10%
O=C(COC(=O)CNC(=O)c1cccc(OC(F)F)c1)NNC(=O)c1ccccc1
→ -2%	-11%	-1%
CC1(c2cccc(Br)c2)NC(=O)N(CC(=O)NC2CCCCC2)C1=O (stereo not given)
→ 26%	-2%	-6%
O=C1N[C@H](Cc2ccccc2)COC(=O)[C@@H](Cc2ccc(F)cc2)CC/C=C/C[C@H]1CC(=O)N(CCO)Cc1ccccc1
→ 4%	-38%	-27%
Cc1cc(C)cc(CSc2ccc(S(=O)(=O)N3CCCC3)cn2)c1
→ -4%	0%	-11%
CCCN(CC(=O)Nc1ccccc1C)C(=O)COc1c(C)cccc1C
→ -2%	-6%	9%
CN1C2CCC1C(C(=O)O)C(OC(=O)c1ccccc1)C2 (stereo not given)
→ -5%	-25%	-1%
Cc1nc(Cc2nnc(SCC(=O)N3CCN(c4ccc(O)cc4)CC3)o2)cs1
→ -3%	-11%	-4%
COc1ccccc1CNC(=O)c1ccc(N2CCOCC2)c([N+](=O)[O-])c1
→ -13%	-6%	0%
O=C(OCC(=O)c1ccc(Cl)cc1Cl)c1ccccn1
→ -2%	3%	-1%
N#CC1(NC(=O)CN2C(=O)NC3(CCCCCC3)C2=O)CCCCC1
→ 4%	-21%	1%
COc1ccc(CN(C)CC(=O)NC(=O)NC2CCCCC2)cc1
→ -18%	2%	-1%
Cc1ccc(C(=O)OCC(=O)NCc2ccc(Cl)cc2Cl)o1
→ -8%	13%	-1%
CCCCOc1ccc(C(=O)NCC(=O)N2CC(C)CC(C)C2)cc1 (stereo not given)
→ -14%	u	-7%
Cc1ccc(S(=O)(=O)N2CCN(C(=O)Cc3ccccc3)CC2)cc1C
→ -6%	-20%	-2%
COc1ccc([C@H](NC(=O)OC(C)(C)C)C(=O)OC(C)(C)C)cc1
→ -8%	-4%	2%
CC(C)N(C(=O)[C@H]1C[C@H](CC(=O)NCc2cccc(C(F)(F)F)c2)C(=O)N2CCc3c([nH]c4ccc(Cl)cc34)[C@]12C)C(C)C
→ 9%	u	-3%
CCc1ccccc1NC(=O)CSc1nnc(-c2ccncc2)o1
→ -1%	-23%	3%
O=C1C=C(c2ccc(CO)cc2)C[C@@H](c2ccc3c(c2)OCO3)C1
→ 4%	-10%	-5%

Next section, starting with the last 2 of the part before.
Each structure is followed by: RE007 growth inh	StopGo reporter	SARS PLP yeast
CCc1ccccc1NC(=O)CSc1nnc(-c2ccncc2)o1
→ -1%	-23%	3%
O=C1C=C(c2ccc(CO)cc2)C[C@@H](c2ccc3c(c2)OCO3)C1
→ 4%	-10%	-5%
CCCNC(=O)N1[C@H]2CC[C@@H]1C(C(=O)OC)=C(c1ccc(-c3ccccc3)c(F)c1)C2
→ 9%	u	3%
CCC(C)C(NC(=O)C1CCC(C)CC1)C(=O)NCCCN1CCCCC1CC (stereo not given)
→ -17%	-17%	0%
CC(=O)O[C@H]1C[C@@H]2CC[C@@H]3[C@H](CC[C@]4(C)C(=O)CC[C@@H]34)[C@@]2(C)C[C@@H]1OC(C)=O
→ -5%	u	-3%
CCNC(=O)c1ccc(NC(=O)CC2SC(N3CCCCC3)=NC2=O)cc1 (stereo not given)
→ 2%	-15%	0%
Cc1ccc2c(c1)C1CN(C)CCC1N2S(=O)(=O)c1ccc(C(C)C)cc1 (stereo not given)
→ 0%	1%	-4%
Cc1ccccc1C(=O)Nc1nnc(SC(C)C)s1
→ -7%	49%[activator]	0%
Cc1ccc(C(=O)Nc2cccc(C(F)(F)F)c2)cc1NC(=O)c1c[nH]c2cc(C(F)(F)F)ccc2c1=O
→ 6%	39%[activator]	-5%
COc1ccc(S(=O)(=O)N2CCC(C(=O)NC(c3nc4ccccc4[nH]3)C(C)C)CC2)cc1 (stereo not given)
→ 7%	-5%	-3%
O=C(c1cnn(Cc2ccccc2)c1)N1CCN(S(=O)(=O)/C=C/c2ccccc2)CC1
→ -15%	-28%	1%
CCSc1nnc(NC(=O)COc2ccc(Cl)cc2)s1
→ 6%	-4%	-2%
COc1ccc(-c2nn(-c3ccccc3)cc2C(=O)N(C)CC(=O)Nc2cccc(F)c2)cc1
→ 3%	13%	-7%
Cc1ccc(C(=O)O)cc1NC(=S)NC(=O)c1ccc([N+](=O)[O-])c(C)c1
→ 1%	-5%	0%
CC(C)c1cccc(C(C)C)c1NC(=O)CN1C(=O)NC2(CCCCCCC2)C1=O
→ -2%	-12%	0%
C[C@@]12C(=O)Nc3ccc(F)cc3C(=O)N1[C@H]1c3ccccc3OC[C@@H]1[C@@H]2c1ccccc1
→ 10%	-21%	-2%
C[C@H](CO)N1C[C@H](C)[C@@H](CN(C)S(=O)(=O)c2ccccc2)Oc2ccc(NC(=O)C3CC3)cc2C1=O
→ 19%	-20%	4%
C[C@H]1CN([C@@H](C)CO)C(=O)c2cccc(NC(=O)c3ccncc3)c2O[C@H]1CN(C)C(=O)Nc1ccccc1
→ 1%	0%	0%
COC(=O)Cc1coc2cc(OC)ccc12
→ -8%	12%	-12%
CCOC(=O)N1CCN(CC(=O)Nc2ccccc2C(=O)Nc2ccccc2)CC1
→ 0%	-24%	-1%
CCN(CC)C(=O)CSc1nnc2cc(C)c3ccccc3n12
→ -10%	8%	-1%
CC(Oc1cccnc1[N+](=O)[O-])C(=O)Nc1ccc(Cl)cn1 (stereo not given)
→ -4%	-7%	8%[6.58 µM]
Cc1cc(C)c(C)c(S(=O)(=O)Nc2ccccc2C(=O)NCCCN2CCOCC2)c1C
→ -13%	16%	1%
COc1ccc(C(CNC(=O)c2ccc(-c3nc4ccccc4s3)o2)N2CCCC2)cc1 (stereo not given)
→ -16%	4%	1%
CCN(C(=O)CSc1nnc(SC)s1)c1c(N)n(Cc2ccccc2)c(=O)[nH]c1=O
→ 18%	1%	-5%
O=C(N/N=C/c1ccccn1)c1ccc(S(=O)(=O)N2CCCCCC2)cc1
→ -6%	4%	-2%
CCCOc1ccc(C(F)(F)F)cc1NC(=O)CCc1c(C)noc1C
→ -2%	-21%	0%
Cn1nc(C(=O)OCC(=O)NCc2ccc(Cl)cc2)c2ccccc2c1=O
→ -6%	-11%	-2%
O=C(Oc1cc(Cl)ccc1Cl)C1=CC=CN2CCS(=O)(=O)N=C12
→ -8%	-4%	4%
O=C(OCC(=O)N1CCCCCC1)c1cnc(Cl)c(Cl)c1
→ -11%	-9%	2%
O=c1cc(-c2ccsc2)oc2cc(-c3ccc4c(c3)OCO4)ccc12
→ -6%	3%	1%
Cc1cc(C)cc(NC(=O)CN(C)CC(=O)N(CC(C)C)c2c(N)n(CC(C)C)c(=O)[nH]c2=O)c1
→ -5%	-13%	4%
O=C(OCC(=O)N1CCc2ccccc21)c1ccc([N+](=O)[O-])o1
→ u	0%	-8%
CC(NC(=O)C1CCN(C(=O)Nc2ccccc2)CC1)c1ccc(Cl)cc1 (stereo not given)
→ -1%	-4%	-6%
Cc1ccc(NC(=O)COC(=O)c2ccc[n+]([O-])c2)c(Br)c1
→ 6%	2%	2%
CCCC[C@@H]1CNCCN1CCc1cccc2ccccc12
→ 2%	0%	-1%
CCN(CC(=O)NCc1cccs1)C(=O)/C=C/c1cc(Br)ccc1OC(F)F
→ 7%	-23%	11%[6.58 µM]
O=C(COc1ccc(S(=O)(=O)N2CCOCC2)cc1)Nc1ccc(Br)cc1
→ -18%	u	-1%
Cc1cc(=O)oc2cc(OCC(=O)N3CCN(C(C)c4ccccc4)CC3)c(Cl)cc12 (stereo not given)
→ -18%	-26%	8%
COc1ccc(S(=O)(=O)Nc2cccc3c2O[C@H](CN(C)Cc2ccc(-c4ccccc4)cc2)[C@@H](C)CN([C@H](C)CO)C3=O)cc1
→ 1%	-12%	3%
CCOc1ccc(C(=O)CC(C(=O)O)N2CCCCC2)cc1 (stereo not given)
→ -10%	u	4%
C[C@H](CO)N1C[C@H](C)[C@@H](CN(C)S(=O)(=O)c2cn(C)cn2)Oc2c(NC(=O)Nc3ccc4c(c3)OCO4)cccc2C1=O
→ 4%	51%[activator]	4%
CC(C(=O)N1CCc2ccccc21)N(C)CC(=O)Nc1ccccc1Cl (stereo not given)
→ 11%	-23%	5%
CCN(CC(=O)Nc1c(F)cccc1F)C(=O)Cn1[nH]c(=O)c2ccccc2c1=O
→ 8%	-13%	-7%
COC(=O)C1CCN(C(=O)COC(=O)c2cc(-c3ccccc3)nc3ccc(OC)cc23)CC1
→ -15%	u	-1%
COc1cccc(-c2ncc3ccccc3c2COC(=O)c2ccc(C(F)(F)F)cc2)c1
→ -12%	-22%	0%
COc1cccc(CNC(=O)c2cc(S(=O)(=O)N3CCOCC3)ccc2N2CCCC2)c1
→ -6%	-13%	2%
CCCN(CC(=O)Nc1ccccc1C)C(=O)CSc1ccccc1C
→ 5%	0%	8%[6.58 µM]
COc1ccc(CCNC(=O)c2ccc(S(=O)(=O)N3CCCCC3)cc2)cc1
→ 0%	-8%	0%
Cn1c(N)c(C(=O)COC(=O)c2ccc(OC(F)F)cc2)c(=O)n(C)c1=O
→ -5%	-25%	1%
Cc1c(Cl)c([N+](=O)[O-])nn1CCCC(=O)Nc1cccnc1
→ 15%	-2%	-1%
CCOc1ccc(S(=O)(=O)NCC(=O)OCc2nnc(-c3ccccc3)o2)cc1
→ 56%	25%	-15%
Cc1nc(NC(=O)COC(=O)[C@@H](NC(=O)c2ccco2)C(C)C)c(Cl)cc1Cl
→ -17%	-12%	1%

Screens (PubChem)
